# RE007 growth inh – less growth of the S. pombe RE007 Vpr strain; AID 651644; Potency, µM (titrated, usually from 92.2 µM), without a hit: at the top dose activity change, negative = less growth; actives 0.21% (n = 360,000); S. pombe RE007 Vpr strain, BacTiter-Glo ATP luminescence, 24 h; control for the full effect not named in the record; active = well fitted falling curve with a large enough effect; inconclusive = small, poorly fitted or top-dose-only effect; inactive = no such curve, though single readings can be large or run the other way;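 also: % is scaled to controls: 0 for no effect and ±100 for the full control effect; nearly all actives have a fitted effect of over 50% in size; the assay follows cell death caused by Vpr and the record does not say whether a fall means rescue or toxicity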
#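 Fission yeast strain RE007, carrying one chromosomally integrated HIV-1 vpr copy, was seeded at OD 0.01 in PMG+AL medium with 23 nL pinned compound. After 24 h at 30 °C and 99% humidity, viability was read by BacTiter-Glo luminescence.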
# SARS PLpro yeast – blocks SARS-CoV papain-like protease in a yeast assay | Potency, µM (titrated, usually from 32.9 µM), for inactives: at the top dose activity, positive = growth rescue | AID 485353 | S. cerevisiae expressing SARS-CoV PLpro, growth rescue; control for the full effect not named in the record | actives 0.19% (n = 330,000); active means well fitted rising curve with a large enough effect; inconclusive means small, poorly fitted or top-dose-only effect; inactive means no such curve, though single readings can be large or run the other way; also: 0% is about no effect; nearly all actives have a fitted effect of over 55% in size; growth read by luminescence after 48 h
# Lassa entry inh – inhibitors of Lassa virus binding or cell entry; Potency, µM (doses to about 37.9 µM), inactives show top-dose activity change, negative = inhibition, hits mostly inhibitors; actives 1.2% (n = 300,000); Lassa virus pseudotype entry inhibition, cell reporter; control for the full effect not named in the record; active means well fitted inhibition curve with a large enough effect; inconclusive means small, poorly fitted or top-dose-only effect, or effect the other way; inactive means flat fitted curve, though single readings scatter; tested in HEK293 cells; also: % is scaled to controls: 0 for no effect and ±100 for the full control effect; nearly all actives have a fitted effect of over 50% in size; luciferase read-out
# 2A StopGo – FMDV 2A StopGo reporter, luciferase signal. human cells with a luciferase reporter of 2A StopGo recoding; control for the full effect not named in the record. Potency, µM (highest dose often 57.9 µM), without a hit: at the highest dose signal change, negative = less light. actives 1.2% (n = 410,000). AID 1159524; active = well fitted falling curve with a large enough effect; inconclusive = small, poorly fitted or top-dose-only effect; inactive = no such curve, though single readings can be large or run the other way; tested in HEK293T cells; also: % is scaled to controls: 0 for no effect and ±100 for the full control effect; nearly all actives have a fitted effect of over 45% in size; luciferase light after 4 h
# Marburg entry inh – blocks Marburg virus binding to or entry into cells; Potency, µM (highest dose often 37.8 µM), for inactives: at the top dose activity change, negative = inhibition, most hits filed as inhibitors; actives 1.8% (n = 300,000); Marburg virus pseudotyped entry inhibition, cell reporter; control for the full effect not named in the record; about a third of the inactives were read at about 46 µM; AID 540276; active = well fitted inhibition curve with a large enough effect; inconclusive = small, poorly fitted or top-dose-only effect, or effect the other way; inactive = flat fitted curve, though single readings scatter; tested in HEK293 cells; about a fifth of its hits are not listed in these tables; also: % is scaled to controls: 0 for no effect and ±100 for the full control effect; luciferase read-out
# Cruzain noTriton – inhibitors of Trypanosoma cruzi cruzain without detergent. purified cruzain, Z-FR-AMC fluorescence, no detergent. Potency, µM, for inactives: max response, negative = inhibition, most hits filed as inhibitors. actives 2.3% (n = 200,000);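 also: plate controls were enzyme without inhibitor for no effect and buffer without enzyme for full effect; nearly all actives have a fitted effect of over 40% in size; top concentration of the series not given in the record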
# Target sequence (P25779 123-467 limits assumed): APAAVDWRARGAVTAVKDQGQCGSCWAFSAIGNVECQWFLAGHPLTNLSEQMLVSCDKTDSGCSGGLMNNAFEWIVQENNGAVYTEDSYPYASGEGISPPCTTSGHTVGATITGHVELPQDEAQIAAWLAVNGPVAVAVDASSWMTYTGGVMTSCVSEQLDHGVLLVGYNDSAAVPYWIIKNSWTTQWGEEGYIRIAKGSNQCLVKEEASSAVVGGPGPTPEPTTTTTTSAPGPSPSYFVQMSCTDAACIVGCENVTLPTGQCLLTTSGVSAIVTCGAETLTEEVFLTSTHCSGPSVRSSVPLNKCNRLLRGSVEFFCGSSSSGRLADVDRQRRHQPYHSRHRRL
#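 Detergent-free condition (0.00005% Triton X-100) in acetate buffer pH 5.5 with DTT. 1.5 nM enzyme and compound were pre-mixed 15 min, then 2 uM Z-FR-AMC substrate added; reaction progress from fluorescence change between first and third reads (60 s).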
# Cruzain Triton – cruzain (T. cruzi) inhibition with detergent | P25779 | purified cruzain, Z-FR-AMC fluorescence, 0.01% Triton | Potency, µM, inactives show max response, negative = inhibition, actives largely listed as inhibitors | actives 0.43% (n = 200,000);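 also: plate controls were neutral wells for no effect and buffer without enzyme for full effect; nearly all actives have a fitted effect of over 40% in size; top concentration of the series not given in the record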
#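 In this qHTS format, compounds are incubated with 1.5 nM cruzain for 15 min at room temperature before 2 uM Z-FR-AMC is added. Release of AMC is followed at 360/450 nm, and progress is taken as the 60 s fluorescence difference.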
# NS1 function inh – inhibitors of influenza NS1 protein function. S. cerevisiae slowed by influenza A NS1, growth recovery by OD600. Potency, µM (titrated, usually from 46.1 µM), inactives show at the highest dose activity, positive = more growth. actives 0.4% (n = 270,000). AID 2326; active means well fitted rising curve with a large enough effect; inconclusive means small, poorly fitted or top-dose-only effect; inactive means no such curve, though single readings can be large or run the other way; also: nearly all actives have a fitted effect of over 50% in size
#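 OD600 was taken as the measure of yeast growth restored by compound in an NS1-expressing S. cerevisiae strain. Cells had been washed out of glucose medium and diluted 1:100 into galactose -URA medium, pH 6.0.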
# * marks the source's active call; other numbers are inactive results; ? = inconclusive; nt = not tested or not shown; & = joins results of further samples; [ ] = another dose, or the depositor's remark. Unless noted, calls follow the shape of the dose curve; as a rule, active = well fitted curve in the direction sought with a large enough effect; inconclusive = small, poorly fitted or top-dose-only effect, or another doubt; inactive = no such curve, though single readings can be large; an effect the other way counts as inactive or inconclusive. Potency is read from the fitted curve at half-maximal effect.
cpd	structure	RE007 growth inh	SARS PLpro yeast	Lassa entry inh	2A StopGo	Marburg entry inh	Cruzain noTriton	Cruzain Triton	NS1 function inh
1	O=c1[nH]cc(CN2CCOCC2)c(=O)[nH]1	-5%	nt	28%[46.1 µM]	-9%	-2%[46.1 µM]	nt	nt	nt
2	Cc1ccc(S(=O)(=O)N(C)c2c(C)ccc(S(=O)(=O)N3CCN(C)CC3)c2C)cc1	28%	-18%	-1%	1%	12%	-5%	-2.3%	-2%
3	COC(=O)c1c(NC(=O)CC2NCCNC2=O)sc2c1CCCC2 (configuration not stated)	1%	-1%	18%	4%	14%	2%	-1.7%	2%
4	Cc1ccc(S(=O)(=O)NCC(=O)OCC(=O)Nc2cccc(S(=O)(=O)NC3=NCCCCC3)c2)cc1	8%	-1%	1%	8%	2%	nt	nt	nt
5	Nc1nnnn1/N=C/c1ccc(F)cc1	9%	0%	nt	-7%	nt	nt	nt	8%
6	Cc1cccc(-c2nc3ccccc3c(=O)n2NC(=O)c2ccc([N+](=O)[O-])c(C)c2)c1	16%	7%	17%	?	?	1%	-5.7%	-1%
7	Cc1onc(-c2c(F)cccc2Cl)c1C(=O)OCC(=O)NCc1ccco1	-6%	-3%	0%	-15%	-19%	-9%	-6.9%	-4%
8	Cc1ccc(C(C)C)c(OCC#CCN2CCCC2)c1	-6%	1%	nt	-15%	nt	nt	nt	-1%

# Fetched by compound from the list above (2):
cpd	structure	RE007 growth inh	SARS PLpro yeast	Lassa entry inh	2A StopGo	Marburg entry inh	Cruzain noTriton	Cruzain Triton	NS1 function inh
7	Cc1onc(-c2c(F)cccc2Cl)c1C(=O)OCC(=O)NCc1ccco1	-6%	-3%	0%	-15%	-19%	-9%	-6.9%	-4%
1	O=c1[nH]cc(CN2CCOCC2)c(=O)[nH]1	-5%	nt	28%[46.1 µM]	-9%	-2%[46.1 µM]	nt	nt	nt

# (next part)
cpd	structure	RE007 growth inh	SARS PLpro yeast	Lassa entry inh	2A StopGo	Marburg entry inh	Cruzain noTriton	Cruzain Triton	NS1 function inh
9	CC(NC(=O)C1CCCN1S(=O)(=O)c1cccc2nsnc12)c1ccccc1 (configuration not stated)	0%	-1%	nt	-3%	nt	nt	nt	4%
10	CCCCn1c(O)c(C(C)=NCCCn2ccnc2)c(=O)[nH]c1=O	-2%	2%	-10%	0%	0%	-7%	-3.1%	7%
11	Cc1c(C)c2c(C)[nH]nc2oc1=O	-17%	?	28%	-2%	-3%	0%	6.9%	3%
12	O=C(NC(=O)N1CCN(c2ccccc2)CC1)c1ccc(Cl)cc1	5%	10%	13%	63%[activator]	29%	-13%	-1.4%	3%
13	CC(=O)c1ccc(NC(=O)CN2CCCC2)cc1	7%	0%	23%[46.1 µM]	11%	?	nt	nt	12%
14	CCn1c(CNC(=O)c2cc(OC)c(OC)c(OC)c2)cc2ccccc21	11%	-5%	?	-27%	?	nt	nt	?
15	CC(C)Oc1ccc(CNC(=O)c2ccccc2NC(=O)c2nsc3ccccc23)cc1	nt	nt	-4%[46.1 µM]	0%	nt	1%	0.0%	nt
16	Cc1cc(C)c(S(=O)(=O)c2ccccc2C)c(OCC(C)(C)C)n1	13%	-18%	?	-3%	?	6%	1.7%	-27%

# Reprinted from the part before: 5 entries; new compounds follow.
cpd	structure	RE007 growth inh	SARS PLpro yeast	Lassa entry inh	2A StopGo	Marburg entry inh	Cruzain noTriton	Cruzain Triton	NS1 function inh
12	O=C(NC(=O)N1CCN(c2ccccc2)CC1)c1ccc(Cl)cc1	5%	10%	13%	63%[activator]	29%	-13%	-1.4%	3%
13	CC(=O)c1ccc(NC(=O)CN2CCCC2)cc1	7%	0%	23%[46.1 µM]	11%	?	nt	nt	12%
14	CCn1c(CNC(=O)c2cc(OC)c(OC)c(OC)c2)cc2ccccc21	11%	-5%	?	-27%	?	nt	nt	?
15	CC(C)Oc1ccc(CNC(=O)c2ccccc2NC(=O)c2nsc3ccccc23)cc1	nt	nt	-4%[46.1 µM]	0%	nt	1%	0.0%	nt
16	Cc1cc(C)c(S(=O)(=O)c2ccccc2C)c(OCC(C)(C)C)n1	13%	-18%	?	-3%	?	6%	1.7%	-27%
17	CN(C)c1ccc(-c2nc3n(n2)C(c2cccnc2)C2=C(CC(C)(C)CC2=O)N3)cc1 (configuration not stated)	6%	-4%	-3%	1%	?	1%	-3.0%	-3%
18	CSc1nc(-c2ccccc2)nn1C(=O)c1ccccc1	15%	-9%	-3%	18%	-1%	-2%	-1.3%	-14%
19	C=CCNC(=S)N/N=C/c1ccc(OCc2ccccc2)cc1	17%	6%	nt	-20%	1%	-2%	-5.8%	-17%
20	O=C(CSc1ccccn1)N1CCN(c2ccc(Cl)cc2)CC1	2%	4%	4%	-18%	11%	-6%	2.0%	9%
21	O=C(CC1Oc2ccccc2NC1=O)NC1CCCC1 (configuration not stated)	-3%	-10%	nt	-19%	nt	-19%	-0.9%	8%
22	Cc1nonc1C(=O)N/N=C/c1ccccc1	-18%	0%	-1%	24%	?	nt	nt	-1%
23	CC1CCCCN1C(=O)Cn1cc(/C=C2/C(=O)Nc3ccccc32)c2ccccc21 (configuration not stated)	nt	-12%	nt	nt	1%	4%	-4.7%	?
24	C/C=C\C=C\C(=O)N1CC2(CC(c3cccc(NC(=O)/C(C)=C\C)c3)=NO2)C[C@H]1C(N)=O (some centres not stated)	-4%	1%	nt	-7%	nt	nt	nt	3%

# Continued.
cpd	structure	RE007 growth inh	SARS PLpro yeast	Lassa entry inh	2A StopGo	Marburg entry inh	Cruzain noTriton	Cruzain Triton	NS1 function inh
25	O=C1CN=C(c2ccc[nH]2)c2cc(Cl)ccc2N1	9%	-1%	nt	-9%	nt	nt	nt	2%
26	COc1ccc(CC2(C)OC(c3ccc(C)cc3)=NN2C(C)=O)cc1 (configuration not stated)	30%	-17%	?	-28%	1%	-3%	-6.5%	-22%
27	CSc1ccccc1OCc1cc(C(=O)N[C@H]2CCCCNC2=O)no1	4%	1%	?	-1%	21%	nt	nt	-10%
28	CCOC(=O)c1[nH]c2c(c1C)C(=O)CC(c1ccc(N(C)C)cc1)C2 (configuration not stated)	-2%	-1%	nt	-11%	nt	-1%	0.8%	1%
29	Cn1c(=O)c(C(=O)COC(=O)c2cc(C3CC3)nc3ccccc23)c(N)n(Cc2ccccc2)c1=O	4%	-9%	-8%	?	-25%	0%&-17%	0.6%&-4.3%	-1%
30	Cn1c(=O)oc2cc(S(=O)(=O)CCC(=O)NCCc3ccc(Cl)cc3)ccc21	nt	nt	?	-20%	nt	4%	-0.2%	nt
31	CCOc1ccc(Nc2nc3cc(S(=O)(=O)N(CC)CC)ccc3o2)cc1	-8%	1%	?	-20%	?	16%	-7.1%	-5%

# Screens (PubChem)
